HPGD block – qHTS Assay for Inhibitors of HPGD (15-Hydroxyprostaglandin Dehydrogenase); 15-hydroxyprostaglandin dehydrogenase [NAD(+)] (Homo sapiens), P15428; purified HPGD, NADH fluorescence kinetic, PGE2 substrate; Potency, µM, without a hit: at the top dose activity change, negative = inhibition, most hits filed as inhibitors; 4.3% of 150,000 active; active = well fitted inhibition curve with a large enough effect (not every such curve was filed as active); inconclusive = small, poorly fitted or top-dose-only effect, or another doubt; inactive = no such curve, though single readings can be large or run the other way;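 note: top concentration of the series not given in the record; plate controls included wells without enzyme; inactives centre near -10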
Target sequence (P15428 whole entry, looked up): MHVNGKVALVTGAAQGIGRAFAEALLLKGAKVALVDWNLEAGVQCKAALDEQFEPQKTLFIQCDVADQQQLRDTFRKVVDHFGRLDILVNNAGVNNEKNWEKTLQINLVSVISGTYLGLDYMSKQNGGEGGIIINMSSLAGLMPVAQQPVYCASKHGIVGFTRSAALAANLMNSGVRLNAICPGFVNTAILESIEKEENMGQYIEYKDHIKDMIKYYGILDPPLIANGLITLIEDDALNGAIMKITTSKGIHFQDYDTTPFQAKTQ
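NADH formation kinetics: reaction with 30 uM PGE2 and 1 mM NAD+ (final), 20 nM enzyme, Tris-HCl pH 8 with Tween 20, after 15 min compound preincubation at room temperature. Fluorescence change, last versus first of five reads.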
* marks the source's active call; other numbers are inactive results; ? = inconclusive; & = joins results of further samples. % is set by controls: 0 for no effect and ±100 for the full control effect; potency is the fitted concentration of half-maximal effect. An excerpt; rates above refer to the full screens.

SMILES	HPGD block
CCOC(=O)c1ccc(Nc2nc(C)cc(C)c2C#N)cc1	?
O=C(O)C1CC=CCC1C(=O)Nc1cccc(C(=O)N2CCCCC2)c1 (stereo not given)	-22%
CCOC(=O)C(NC(=O)N(C)C)(Nc1sc(C)c(CC)c1C#N)C(F)(F)F (stereo not given)	14µM*
O=C(NCC(c1cccnc1)N1CCN(c2ccc(F)cc2)CC1)c1ccc(F)cc1 (stereo not given)	-12%
COC(=O)c1cc(-c2c(C)oc3cc(O)ccc3c2=O)c(C)o1	?
Cc1ccc(C(=O)N/C(=C/c2cccs2)C(=O)N2CCCCCC2)cc1	1%
O=C(CN1CCOCC1)Nc1c2c(nc3c1CCC3)CCC2	2%
C=CCOc1c(CNc2ccc(S(N)(=O)=O)cc2)cccc1OC	-13%
O=C(CSc1nc2ccccc2n1-c1ccccc1)Nc1ncc(Cl)cc1Cl	-7%
CCn1c(SCC(=O)Nc2cc(NC(C)=O)ccc2OC)nnc1-c1ccccn1	0%
O=C(COc1ccccc1)Nc1ccc(S(=O)(=O)NCc2ccco2)cc1	-17%
Cc1cc(C)c2cc(CN(CCO)C(=O)Nc3ccc(Cl)cc3)c(=O)[nH]c2c1	?
COC1CCCCC1Nc1cc(C)cc(C)c1 (stereo not given)	-1%
O=S(=O)(Cc1ccccc1)N1CCCC1	-14%
O=C1COc2ccc(C(=O)/C=C/c3ccccc3)cc2N1	-23%
CCC(=NCc1ccc(Cl)c(Cl)c1)c1nc(-c2ccco2)oc1O	-9%
CNCC[C@H](Oc1ccccc1OC)c1ccccc1	6%&-9%
COC(=O)CCCC1=CC2=C(c3ccccc3)C(=O)C(C)(OC(=O)C3CCCC3)C(=O)C2=CN1CCc1c[nH]c2ccccc12 (stereo not given)	-9%
COc1cc(Cl)c(C)cc1NC(=O)CSC	-5%
NS(=O)(=O)c1ccc(CNC(=O)/C=C/c2cccc(Cl)c2)cc1	1%
O=C(O)c1cccc(C(=O)O)c1S(=O)Cc1ccccc1 (stereo not given)	-1%
Cc1ccc(N(CCC(=O)O)S(=O)(=O)c2ccc(C)cc2)cc1	0%
CCCS(=O)(=O)c1c(S(=O)(=O)CCC)c2c(C)cccn2c1C(=O)OC	?
N#C/C(=C1/CCCCCN1)c1nnc2n1CCCCC2	-6%
COc1ccccc1OCc1ccc(C(=O)Nc2ccncc2)o1	-3%
COc1ccc(/C=C(/C#N)C(=O)Nc2cc(C)ccc2C)cc1C(=O)O	-23%
CC(=O)N(CC1CCCO1)C1(C(=O)NC2CCCC2)CCCCC1 (stereo not given)	1%
CCCCC(=O)N(c1ccc(C)c(C)c1)C1C=CS(=O)(=O)C1 (stereo not given)	-3%
Cn1c(=O)[nH]c(=O)c2c1nc(N1CCCCCC1)n2CCSc1nc2ccccc2[nH]1	-15%
O=C(Nc1nn(Cc2ccc(Cl)cc2)cc1Br)c1ccc(COc2ccccc2Cl)o1	-30%

Compounds shown so far that have fluorine:
SMILES	HPGD block
CCOC(=O)C(NC(=O)N(C)C)(Nc1sc(C)c(CC)c1C#N)C(F)(F)F (stereo not given)	14µM*
O=C(NCC(c1cccnc1)N1CCN(c2ccc(F)cc2)CC1)c1ccc(F)cc1 (stereo not given)	-12%

More entries:
SMILES	HPGD block
Cc1nnc2n(Cc3ccccc3)c(=O)c3c4c(sc3n12)CN(Cc1ccccc1)CC4	?
COc1ccc(NC(=O)C2C3C=CC(C3)C2C(=O)NCc2ccco2)c(OC)c1 (stereo not given)	25µM*
COc1ccc(/C=N/Nc2nnc(Cc3ccc(OC)c(OC)c3)c(=O)[nH]2)cc1	-20%
Cc1ccc(NC(=O)N(C2CCCCC2)C(C)c2cccnc2)cc1C (stereo not given)	-11%
CCCc1ccc(OCC(=O)NNC(=S)NC(=O)c2ccco2)cc1	-11%
Cc1ccc(C(=O)CC2SC(N)=NC2=O)cc1 (stereo not given)	-5%
CC(=O)Nc1c(C(=O)N2CCOCC2)cnn1-c1ccc(C)c(C)c1	-4%
CCOC(=O)CSc1nc2cc(C(=O)NCC3CCCO3)ccc2c(=O)n1Cc1ccco1 (stereo not given)	-25%
CCOc1cc(C(=O)Nc2cccc3ncccc23)cc(OCC)c1OCC	6%
COc1ccc(N2CCN(CCNC(=O)CCS(=O)(=O)c3cccc4nsnc34)CC2)cc1	-20%
COC(=O)c1ccccc1OCCOc1ccccc1C(=O)OC	-8%
CSc1ccc(Cc2ccc(Cl)cc2Cl)nn1	-13%
COc1ccc2nc(Nc3nc4ccc(NC(C)=O)cc4s3)sc2c1	?
CCC(=O)N1CCN(c2ccc(NC(=O)c3cc4ccccc4o3)cc2Cl)CC1	-16%
Cc1cccc(OC(=O)c2sc(Cl)nc2C)c1	-1%
CCCCc1nc(Cl)c(C#N)c2c1CCCC2	-4%
CCc1ccccc1N(CC)C(=O)c1cn(CC)c(=O)c2cc(OC)c(OC)cc12	-11%
O=C(NCc1ccc2c(c1)OCO2)c1cccs1	28µM*
CC(NC(=O)CSc1cccc(C(F)(F)F)c1)c1ccccc1 (stereo not given)	-16%
CCCCNC(=O)n1c(=O)oc2ccc(Cl)cc21	-2%
Cc1ccc(S(=O)(=O)NCC(=O)N(CC(=O)NCc2ccccc2)CC2CCCO2)cc1 (stereo not given)	-3%
CCOC(=O)c1sc(NC(=O)CSc2nnc(Cc3ccccc3)o2)c(C(=O)OCC)c1C	-3%
O=c1nc2ccccc2c2n1CC(CN1CCN(c3cccc(Cl)c3)CC1)N2 (stereo not given)	-14%
COC(=O)C1=C(C)NC(C)=C(C(=O)OCCN(C)Cc2ccccc2)C1c1cccc([N+](=O)[O-])c1 (stereo not given)	-19%&-12%&-10%
O=C(CC1CCCCC1)Nc1ncn[nH]1	-12%
Cc1cccc(C(=O)NC2CCN(CC(=O)N3CCOCC3)CC2)c1	-3%
CCOC(=O)C(NC(=O)c1ccccc1)(OCc1ccc(F)cc1)C(F)(F)F (stereo not given)	-1%
O=C1C=C(Nc2nc(C(=O)O)cc(=O)[nH]2)c2ccccc2C1=O	-1%
CN1C(=O)/C(=C/C=C2\SCCN2C)SC1=S	-13%
CC(=O)NC(CCS(C)(=O)=O)C(=O)Nc1cccc2ccccc12 (stereo not given)	-3%

Retrieved one by one from the entries so far, 3 records:
SMILES	HPGD block
COc1ccc(NC(=O)C2C3C=CC(C3)C2C(=O)NCc2ccco2)c(OC)c1 (stereo not given)	25µM*
COc1ccc(N2CCN(CCNC(=O)CCS(=O)(=O)c3cccc4nsnc34)CC2)cc1	-20%
CCn1c(SCC(=O)Nc2cc(NC(C)=O)ccc2OC)nnc1-c1ccccn1	0%

Next records:
SMILES	HPGD block
C=C(C)c1nc2cc(OC)c(OC)cc2c(=O)o1	-5%
CN(C)c1ccc(-c2cc(NCc3cccnc3)ncn2)cc1	?
CC(C)C12CN3CC(C(C)C)(CN(C1)C3c1ccc3c(c1)OCO3)C2=O (stereo not given)	3%
CCOc1ccc(S(=O)(=O)N(CC(=O)NCC(F)(F)F)Cc2ccco2)cc1	-12%
C/C(CC(=O)Nc1ccc(Cl)cc1)=N\NC(=O)C(=O)NCCO	-7%
CCC(C(=O)OCC(=O)Nc1ccccc1-c1ccccc1)c1ccccc1 (stereo not given)	-6%
O=C(Nc1ccccc1N1CCN(c2ccccc2)CC1)c1cccc(F)c1	-1%
CN(C)S(=O)(=O)c1ccc(C(=O)Nc2cc(=O)n(C)c(=O)n2C)cc1	-3%
Cc1ccc(/C=C/C(=O)c2c(C)nc3ccccn23)cc1	-20%
CCC(C)[C@H](NC(=O)Nc1cccc(OC)c1)C(=O)OC (stereo not given in full)	-12%
Cc1ccc(C)c(Nc2c([N+](=O)[O-])cc(C(=O)N3CC(=O)Nc4ccccc43)cc2[N+](=O)[O-])c1	-28%
CCOC(=O)Cc1c(C)nc2c(-c3cccc(Br)c3)cnn2c1C	?
CCn1cc(C(=O)N2CCN(C(=O)c3ccco3)CC2)c2cc(OC)c(OC)cc2c1=O	-16%
O=c1/c(=C/c2ccco2)sc2nc(-c3ccccc3Br)nn12	?
CCCCCCCCCCCCC/C=C/[C@@H](O)[C@H](CO)NC(=O)CCCCCCCCCCCCCCC	-11%
Cn1c(=O)c2c(ncn2CC(O)CNc2ccc(Br)cc2)n(C)c1=O (stereo not given)	5%
Cc1cc(C)c(-c2cc(NC(=O)COC(=O)c3ccc(CO)cc3)n(-c3ccccc3)n2)cc1C	-17%
Cc1ccc(Nc2nc(N)nc(CN3CCN(c4ccccc4F)CC3)n2)cc1	-11%
Cc1cc(C)n2cc(CSC3=NCCS3)nc2n1	?
CCC(=O)N1CCN(C(=O)CC)C1c1ccccc1	-7%
CS(=O)(=O)N1CCN(CC2CC3C=CC2C3)CC1 (stereo not given)	1%
CC1(C)Cc2c(C#N)c(NCCN3CCOCC3)nc(-c3ccco3)c2CO1	?
C=CCc1ccccc1OCC(O)CN(C(C)C)C(C)C (stereo not given)	-17%
Cc1cc(C)nc(N2CCCC(C(=O)NCCc3ccccc3F)C2)n1 (stereo not given)	-6%
COC(=O)c1c(C)cc(OC)cc1O	?
COC(=O)c1cn(C(C)C(=O)NCc2ccco2)c2ccccc12 (stereo not given)	-1%
Cc1cc(=O)[nH]c(SCCCOc2ccc3c(c2)CCC3)n1	-21%
O=c1oc2cc(Oc3ccc(C(F)(F)F)cc3[N+](=O)[O-])ccc2c2c1CCC2	?
Cc1ccc(OCCOCCn2ccnc2)c(Br)c1	-21%
Cn1c(Cc2cccc3ccccc23)nnc1SCC(=O)N1CCN(c2ccccc2)CC1	-7%

Already shown: entries from further up.
SMILES	HPGD block
C=C(C)c1nc2cc(OC)c(OC)cc2c(=O)o1	-5%
CN(C)c1ccc(-c2cc(NCc3cccnc3)ncn2)cc1	?
CC(C)C12CN3CC(C(C)C)(CN(C1)C3c1ccc3c(c1)OCO3)C2=O (stereo not given)	3%
CCOc1ccc(S(=O)(=O)N(CC(=O)NCC(F)(F)F)Cc2ccco2)cc1	-12%
C/C(CC(=O)Nc1ccc(Cl)cc1)=N\NC(=O)C(=O)NCCO	-7%

Further records.
SMILES	HPGD block
Cc1noc(C)c1COc1ccc(C(=O)OCC(=O)NCc2ccccc2Cl)cc1	-13%
Cc1cc(C)c2nc(N3CCC(C(=O)N4CCN(c5ncccn5)CC4)CC3)sc2c1	-9%
CN(C)c1ccc(-c2nn3c(-c4cccnc4)nnc3s2)cc1	-17%
CCc1ccc(C2=NN(CCC(=O)NC3CC3)C(=O)CC2)cc1	-2%
COc1ccc(NC(=O)c2ccc(S(=O)(=O)N3CCOCC3)cc2)c(OC)c1	-11%
CCOC(=O)c1nnc2c(Br)c(-c3ccccc3)nn2c1C	-15%
COc1ccc(-n2c(C)c([N+](=O)[O-])c3ccc(O)c(CN4CCCCC4)c32)cc1	-16%
Cc1cc(C)c2nc(C(F)(F)F)nc(NCCCN3CCOCC3)c2c1	-18%
O=C(CN1CCCC1)OCCCc1ccccc1	-8%
Clc1ccccc1-c1nc(N/N=C/c2cccnc2)c2ccccc2n1	14µM*
c1ccc(OCc2nn3c(-c4n[nH]c5c4CCC5)nnc3s2)cc1	-21%
CCN(CC)C(=O)CN(c1ccc(Cl)cc1)S(=O)(=O)c1ccccc1	0%
CSc1c(SCc2ccccc2)cnn(Cc2ccccc2)c1=O	25µM*
O=c1cc(-c2ccccc2)nc(SCc2ccccc2)[nH]1	-8%
Cc1cc(N/C=C\c2nnnn2-c2ccc(F)cc2)no1	-8%
c1ccc(Cn2nnnc2C(c2cccnc2)N2CCN(c3ccccc3)CC2)cc1 (stereo not given)	-8%
O=C(Nc1ccc(Cc2ccncc2)cc1)C1CCC(N2C(=O)C3C4C=CC(C5CC45)C3C2=O)CC1 (stereo not given)	-8%
O=C(Nc1nnc(C(F)(F)F)s1)C1COc2ccccc2O1 (stereo not given)	-10%
N#Cc1ccccc1-c1ccc2ncnc(N3CCNCC3)c2c1	?
COCCCNCC(=O)c1c(N)n(Cc2ccccc2)c(=O)n(C)c1=O	-3%
COc1ccc(/C=C2\NC(=O)[C@@H]3Cc4ccccc4CN3C2=O)cc1	-6%
OCCNCCCCCOc1ccc(F)cc1	-9%
CCCC(=O)c1c(NC)cc(C)oc1=O	-11%
Cc1ccc(-n2ncc(N(C)C)c(Cl)c2=O)cc1	-3%
Cc1ccc(NC(=O)Cn2c(-c3ccc(F)cc3)cnc2SCC(=O)Nc2c(C)cccc2C)cc1	-7%
CC(C)(C)CC(C)(C)c1ccc(OCOCCOCCO)c(Cc2cc(C(C)(C)CC(C)(C)C)cc(Cc3cc(C(C)(C)CC(C)(C)C)ccc3OCOCCOCCO)c2OCOCCOCCO)c1	-8%
Cc1nn(C)c(-c2n[nH]c(=S)n2Cc2ccco2)c1Cl	-17%
CS(=O)(=O)N(CC(=O)NCc1cccnc1)Cc1ccc(Cl)cc1	-2%
Cc1ccccc1NC(=O)c1cc(S(=O)(=O)N2CCOCC2)ccc1F	-2%
COc1cc(CNCCCN2CCOCC2)ccc1OCC(=O)Nc1cccc(C(F)(F)F)c1	-3%
COc1cccc(NC(=O)COC(=O)c2c(F)cccc2F)c1	-8%
